From PubChem
Wee1 stabilizer – Wee1 degradation inhibitors, primary screen, cell-based, HeLa, Wee1K328M-luciferase, luminescence; Wee1-like protein kinase (Homo sapiens), P30291; HeLa Luc-Wee1K328M stability; 100% = proteasome inhibitor MG132 effect; reporter increase, % at 5 µM; hit rate 1.2% among 220,000;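 active means activation above the mean of all tested compounds plus 3 SD, set per screening run, cut at about 8.8% in these data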;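 further: cells exposed to compound for 20 h before luminescence read; 0% = DMSO alone and 100% = MG132 at 30 µM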
Target sequence (P30291 whole entry K328M): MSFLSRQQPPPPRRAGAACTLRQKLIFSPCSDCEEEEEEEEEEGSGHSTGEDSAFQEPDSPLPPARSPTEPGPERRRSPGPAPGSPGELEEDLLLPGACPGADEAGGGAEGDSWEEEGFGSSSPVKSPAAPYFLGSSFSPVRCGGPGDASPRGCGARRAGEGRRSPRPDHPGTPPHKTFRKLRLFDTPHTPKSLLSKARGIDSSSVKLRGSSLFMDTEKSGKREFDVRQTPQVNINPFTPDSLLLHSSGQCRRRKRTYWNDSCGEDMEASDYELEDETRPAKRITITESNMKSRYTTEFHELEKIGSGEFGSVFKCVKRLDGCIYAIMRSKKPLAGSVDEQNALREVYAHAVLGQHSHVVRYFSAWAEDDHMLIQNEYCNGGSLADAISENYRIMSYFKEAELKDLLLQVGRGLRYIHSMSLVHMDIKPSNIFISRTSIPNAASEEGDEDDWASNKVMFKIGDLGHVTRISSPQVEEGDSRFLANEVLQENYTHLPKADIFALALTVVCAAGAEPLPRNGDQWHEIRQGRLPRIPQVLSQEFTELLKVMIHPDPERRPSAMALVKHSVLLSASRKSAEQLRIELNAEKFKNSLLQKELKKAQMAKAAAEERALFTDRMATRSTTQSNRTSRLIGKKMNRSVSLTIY
CHOP inhibitor – inhibitors of CHOP promoter induction, primary screen, cell-based, unfolded protein response, luciferase reporter. hit rate 3.8% among 220,000. CHO-K1 CHOP-promoter luciferase, tunicamycin-induced, 15-18 h. AID 2732, 2010. inhibition, % at 10 µM;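 active means compounds that reduced the stress-induced luciferase reporter signal by more than about 70% of percent inhibition, limit read from the data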;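 further: 0% = tunicamycin plus vehicle and 100% = wells without tunicamycin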
TNF necrop inh – inhibitors of TNF-alpha triggered necroptosis, primary screen, cell-based, Jurkat FADD-/-, single concentration; Jurkat FADD-/- TNF necroptosis rescue, ATP luminescence, 24 h; 0 = TNF only, 100 = no-TNF cells; AID 463075, 2010; hit rate 0.068% among 220,000; activation (protection from cell death), % at 10 µM;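 active means activation, meaning protection from cell death, of at least 50% relative to plate controls; inactive means activation below 50%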;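 further: necroptosis triggered by 40 ng/mL TNF-alpha added together with compound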
TbHK1 inh – Trypanosoma brucei hexokinase 1 inhibitors, primary screen, biochemical, G6PDH-coupled NADH absorbance, MLSCN library; hexokinase 1 [Trypanosoma brucei]; recombinant TbHK1, G6PDH-coupled NADH A340; inhibition, % at 10 µM; hit rate 0.11% among 220,000;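 active means inhibition of 50% or more in the single-dose primary screen; inactive means inhibition below 50%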
PPC-1+TRAIL kill – compounds killing PPC-1 cancer cells with TRAIL present, primary screen, TRAIL potentiator project, ATPLite luminescence, uHTS; AID 1443, 2008; hit rate 0.41% among 220,000; PPC-1 cells + TRAIL, ATPLite viability luminescence; cell killing (% activity), % at 4 µM;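 active means cell killing above 50% in the first pass at 4 µM, then a duplicate retest at 5 µM averaging 50% or more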;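 further: plate controls were cells with TRAIL plus DMSO for no effect and medium-only wells lacking cells for full effect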
EP2 antag – human EP2 receptor antagonists, primary screen, TR-FRET cAMP, C6 glioma cells | inhibition, % at 25 µM | C6 glioma cells expressing human EP2; cells stimulated with saturating PGE2 | Prostaglandin E2 receptor EP2 subtype (Homo sapiens), P43116 | hit rate 0.52% among 260,000;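 active means percent inhibition above 40 after rounding to a whole number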;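 further: rat C6 glioma host cells with rolipram phosphodiesterase inhibitor present; the protocol text gives 20 µM as final concentration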
Target sequence (P43116 whole entry, looked up): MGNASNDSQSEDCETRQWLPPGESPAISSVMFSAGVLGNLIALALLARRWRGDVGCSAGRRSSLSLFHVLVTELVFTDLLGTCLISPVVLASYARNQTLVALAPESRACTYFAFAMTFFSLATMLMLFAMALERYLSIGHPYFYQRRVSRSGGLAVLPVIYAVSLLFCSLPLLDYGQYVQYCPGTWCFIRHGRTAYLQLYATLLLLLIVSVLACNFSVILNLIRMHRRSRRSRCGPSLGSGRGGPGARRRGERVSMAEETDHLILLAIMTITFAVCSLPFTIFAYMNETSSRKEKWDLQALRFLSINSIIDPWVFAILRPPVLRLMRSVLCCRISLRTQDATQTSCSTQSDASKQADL
zVAD death inh – inhibitors of zVAD-triggered necroptosis, primary screen, L929 cells. L929 zVAD necroptosis rescue, ATP luminescence, 24 h; with zVAD 60 µM. viability rescue, % at 10 µM. hit rate 0.38% among 220,000. AID 1377, 2008;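 active means activation, scaled between plate controls, above about 75%, limit read from the data; inactive means activation under that limit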;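 further: 0% = zVAD with DMSO and 100% = DMSO alone without zVAD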
* hit, by the source's call; nt = not tested or not shown; & = joins results of further samples.

smiles,EP2 antag,TNF necrop inh,TbHK1 inh,Wee1 stabilizer,PPC-1+TRAIL kill,CHOP inhibitor,zVAD death inh
CCC(=O)c1c(OCc2ccccc2)ccc2c(C)cc(=O)oc12,7,0.3,-7,1,6,2,-0.7
Cc1sc2nc(CN3CCCCC3)nc(N3CCN(C(=O)c4ccco4)CC3)c2c1C,10,0.9,-1,-1,28,4,-0.8
CN(C)S(=O)(=O)c1cccc(NC(=O)COC(=O)/C=C/c2cccs2)c1,2,0.2,-15,-3,13,-9,7.6
CCn1c(CNC(=O)c2ccco2)nnc1SCC(=O)c1ccc(OC)cc1,11,-0.3,0,-1,9,10,1.9
CC(C)=CCCC(C)CN1CCC(O)CC1 (configuration not stated),5,0.3,9,3,-6,5,0.8
Cc1cccc(Nc2nc(-c3ccccc3)c(C(=O)Nc3cccnc3)s2)c1,15,5.3,0,8,-7,40,17
CCOc1ccc(N/C(N)=N/c2nc(CSc3nnc(C)s3)cc(=O)[nH]2)cc1,1,-19,-2,6,20,-59,-1.6
CC(/C=C/c1ccccc1)=N/NC(=O)c1cc([N+](=O)[O-])cc([N+](=O)[O-])c1,11,1.4,-10,0,27,-1,1.4
N#Cc1cnc(SCC(=O)NNC(=O)COc2cccc3ccccc23)nc1N,9,0.1,-8,0,-7,-15,1.0
O=C(c1ccco1)N(CCC(c1ccccc1)c1ccco1)Cc1ccccc1 (configuration not stated),7,1.2,22,7,6,3,-0.8
Cc1ccc(C(=O)NC2CCCCCC2)cc1N1CCCC1=O,7,0.0,0,-1,8,7,0.5
O=C(CN1C(=O)CSc2ccccc21)N1CCc2ccccc21,nt,-2.6,1,3,26,41,-0.7
Cc1cccc(C(=O)Nc2sc3c(c2C#N)CCCCC3)c1,13,1.8,-3,1,18,34,-0.2
CC(C)(C)OC(=O)[C@H](Cc1ccccc1)NC(=O)c1[nH]cnc1C(=O)Nc1ccc(Cl)cc1,10,3.3,-23,nt,18,51,-0.1
CC(C)CCN1CCN(C/C=C/c2ccco2)CC1CCO (configuration not stated),5,0.2,-6,2,7,1,-0.5
CCC(=O)N(CCC(c1ccccc1)c1ccco1)Cc1cccs1 (configuration not stated),8,-1.9,1,-3,21,29,-0.3
CCOC(=O)C1CCN(C(=O)C2CCN(S(=O)(=O)N3CCCC3)CC2)CC1,0,0.5,19,-2,-5,-3,-0.4
Nc1nc(C(=O)N2CCOCC2)nn1S(=O)(=O)c1ccccc1,2,-0.1,-2,1,6,8,0.8
O=C(NC1CC1)c1ccc(COc2ccc(F)cc2)o1,5,-0.3,-1,-3,15,30,-0.2
CC(=O)c1c(C)[nH]c(C(=O)COC(=O)C2CC2)c1C,3,-1.0,5,1,17,-17,0.8
Cc1ccc(C(=O)n2cnnc2N)cc1,4,-2.0,-2,-1,8,-11,0.1
COc1cccc(OCCNC(=O)CSc2ccc(C(F)(F)F)cc2[N+](=O)[O-])c1,5,1.2,-10,-3,10,85*,1.4
COc1ccc(Cn2c(C)cc3c(c2=O)C(c2cccs2)C(C#N)=C(N)O3)cc1OC (configuration not stated),3,-0.4,-2,-3,-11,12,-0.3
O=C(Nc1ccccc1Cl)c1ccccc1S(=O)(=O)c1ccccc1[N+](=O)[O-],18,-0.1,-5,0,-2,20,0.1
O=C(CN1CCN(Cc2ccc(Cl)cc2)CC1)N/N=C/C=C/c1ccccc1[N+](=O)[O-],7,-4.8,-25,-2,-5,22,0.8
C[C@H](NC(=O)c1nc[nH]c1C(=O)N[C@@H](C)c1ccccc1)C(=O)OC(C)(C)C,7,-0.5,2,0,4,-30,-0.7
Cc1cccc(/C=N/n2c(-c3ccccn3)n[nH]c2=S)c1,14,0.1,-7,-1,-4,0,0.3
CC(C)Oc1cccc(C(=O)NC(=S)Nc2ccc3c4c(cccc24)CC3)c1,5,-1.7,-6,-2,15,18,-0.1
Cc1ccc(/C=N/NC(=O)c2ccccn2)o1,5,1.3,-61,5,10,-17,0.4
NC1=NC2(CCCC2)n2c(nc3ccccc32)N1,8,0.9,1,1,-7,-12,-0.4
CCCCCSc1nc(O)cc(=O)[nH]1,7,1.0,16,-2,0,20,0.4
COc1cc2c(cc1OC)-c1cc(N3CCCc4ccccc43)nc(=O)n1CC2,7,-3.9,-46,-1,18,10,0.5
COc1ccccc1-n1c(-c2cc(-c3ccc(F)cc3)n[nH]2)n[nH]c1=S,2,-1.7,-2,6,9,7,2.4
CCn1c(COc2ccc(C)cc2)nnc1SCC(=O)NNC(=O)c1ccc(OC)cc1,9,1.8,19,0,-17,22,0.3
O=C(N/N=C\c1ccc(OC(=O)c2ccco2)cc1)c1ccc(Cl)cc1,7,-1.7,-3,5,4,21,-0.8
COCCCN1C(=O)C(=O)/C(=C(/O)c2ccccc2)C1c1ccc2c(c1)OCO2 (configuration not stated),-5,-0.9,-18,1,6,-8,0.0
C[C@H](NC(=O)c1[nH]cnc1C(=O)Nc1ccc(Cl)cc1)C(=O)OC(C)(C)C,19,-0.9,-1,nt,0,105*,0.7
CCCCCNCc1ccc(Cl)cc1,6,1.4,0,2,-3,-10,-0.2
Cc1ccccc1Nc1nc(-c2ccccc2)c(C(=O)Nc2cccnc2)s1,16,4.2,-19,0,5,36,0.7
CCc1ccc(N/C(N)=N/c2nc(CSc3ncccn3)cc(=O)[nH]2)cc1,5,-4.1,1,-3,1,37,9.7

Complete entries, quoted from the list. Values in the order: EP2 antag | TNF necrop inh | TbHK1 inh | Wee1 stabilizer | PPC-1+TRAIL kill | CHOP inhibitor | zVAD death inh
COc1ccccc1-n1c(-c2cc(-c3ccc(F)cc3)n[nH]2)n[nH]c1=S across the screens: 2 | -1.7 | -2 | 6 | 9 | 7 | 2.4
C[C@H](NC(=O)c1[nH]cnc1C(=O)Nc1ccc(Cl)cc1)C(=O)OC(C)(C)C across the screens: 19 | -0.9 | -1 | nt | 0 | 105* | 0.7
CCn1c(COc2ccc(C)cc2)nnc1SCC(=O)NNC(=O)c1ccc(OC)cc1 across the screens: 9 | 1.8 | 19 | 0 | -17 | 22 | 0.3
O=C(Nc1ccccc1Cl)c1ccccc1S(=O)(=O)c1ccccc1[N+](=O)[O-] across the screens: 18 | -0.1 | -5 | 0 | -2 | 20 | 0.1
Cc1cccc(/C=N/n2c(-c3ccccn3)n[nH]c2=S)c1 across the screens: 14 | 0.1 | -7 | -1 | -4 | 0 | 0.3

(listing goes on)
smiles,EP2 antag,TNF necrop inh,TbHK1 inh,Wee1 stabilizer,PPC-1+TRAIL kill,CHOP inhibitor,zVAD death inh
CC(C)CCNC(=O)NC(=O)COC(=O)/C=C/c1cccc([N+](=O)[O-])c1,12,-1.2,4,1,21,42,3.4
O=C(NCC1CCCO1)c1ccc(N2CCCCC2)nc1 (configuration not stated),8&9,0.0,-8,3,-10,3,-1.0
Cc1ccc(C)c2nc(N3CCCC3)c(C#N)cc12,6,-0.6,0,-2,7,9,0.8
O=c1c2ccccc2nc(N2CCN(c3ccccc3)CC2)n1Cc1ccccc1,3,-1.0,-2,0,16,3,-0.3
C#CCOC(=O)c1ccccc1C(=O)n1nnc2ccccc21,5,-13,5,-3,8,-4,-0.6
COCCCN=C1NN=C(c2cc(C)n(Cc3ccco3)c2C)CS1,11,-7.3,-40,8,24,11,-1.2
COc1ccc(C(=O)n2nnc3ccccc32)cc1Br,9,-3.6,5,-2,24,14,1.0
Cc1ccc2nc(NCc3ccccc3)c(C=O)c(=O)n2c1,3,-0.6,-4,-1,16,-4,1.1
O=C1C2ON(c3ccc(Cl)cc3)C(c3ccco3)C2C(=O)N1c1ccccc1 (configuration not stated),14,-0.8,-5,0,23,74*,-0.5
S=C(NN=C(C1CC1)C1CC1)Nc1ccccc1,7,-1.1,10,1,8,-27,0.4
NC1=NC2(CCN(Cc3ccccc3)CC2)n2c(nc3ccccc32)N1,7,4.1,12,3,15,37,1.2
O=C(c1csc2ccccc12)n1cccn1,nt,-0.6,4,1,14,25,0.2
N#CC(c1ccccc1F)(c1ncc(C(F)(F)F)cc1Cl)N1CCOCC1 (configuration not stated),6,-0.2,4,-3,4,11,-0.1
C/C(=N\NC(=O)c1ccc(CSc2nncn2C)cc1)c1ccc2ccccc2c1,6,2.3,-6,-3,5,-4,0.6
C[C@H](NC(=O)c1nc[nH]c1C(=O)NC1CCN(C(=O)OC(C)(C)C)CC1)C(=O)OC(C)(C)C,nt,1.7,-15,1,9,12,-0.1
Cc1ccc(CNCc2cc3c(C(C)(C)C)nn(-c4ccccc4)c3[nH]c2=O)cc1,7,1.4,-6,-4,34,108*,1.1
Cc1cc(C)c2nc(NCCCNC(=S)NCCCN(C)C)c(C#N)cc2c1,13,-16,3,-4,21,-1,-2.5
Nc1nc(-c2ccccc2)nn1C(=O)Cc1ccccc1,17,-2.3,5,5,11,-6,0.1
c1ccc(-c2nc(CSc3n[nH]c(-c4cccs4)n3)cs2)cc1,16,-0.7,5,6,17,57,-0.1
CCn1c(CNC(=O)Cc2ccc(OC)cc2)nnc1SCC(=O)c1ccc(Br)cc1,7,-0.3,0,0,-27,50,-0.9
COC(=O)c1sc(SC)c2c1CC(C)(C)C/C2=N/O,9,1.1,-3,-1,12,28,5.4
COc1ccc(-c2nc(N)n(C(=O)Cc3ccccc3)n2)cc1,11,-0.9,1,-1,18,49,1.1
Cn1c(SCC(=O)NCc2ccco2)nnc1-c1cccs1,17,-0.3,-7,-1,-8,-17,-0.2
CN(C)/C=N/c1nc(Sc2ccc(C(F)(F)F)cc2[N+](=O)[O-])n[nH]1,10,1.0,-12,-1,-3,-8,1.3
O=C(Cn1cnc2sc(-c3ccccc3)cc2c1=O)N1CCOCC1,17,-1.9,-13,4,18,4,0.3
Cc1ccnc(SCCn2c(N3CCCCC3)nc3c2c(=O)n(C)c(=O)n3C)n1,8,-1.0,2,-3,25,-30,1.1
CSc1nc(-c2ccccc2)nn1S(=O)(=O)c1ccccc1,4,-0.7,0,1,12,17,0.3
CN(C)c1oc(/C=C/c2ccccc2)nc1C#N,6,1.6,-28,-1,-9,-13,0.0
CCC(=O)Nc1nc2ccccc2n1CCN(CC)CC,4,-0.3,7,-1,5,-8,0.5
CCOC(=O)N1CCN(C(=O)C2CCN(S(=O)(=O)c3cc(OC)ccc3OC)CC2)CC1,7,0.9,-3,0,13,7,1.3
Cc1cc2c(cc1S(=O)(=O)N(C)c1ccccc1)NC(=O)CO2,5,-0.8,5,0,15,14,2.2
Cc1cc(C)nc(SCCn2c(N3CC(C)OC(C)C3)nc3c2c(=O)n(C)c(=O)n3C)n1 (configuration not stated),3,-0.2,5,1,15,21,-0.4
Cc1ccccc1C(=O)Oc1cc(N)n(S(C)(=O)=O)n1,5,0.7,13,-1,6,6,-0.1
CC(C)NCC(O)COCCOc1ccc(Br)cc1 (configuration not stated),8,2.8,7,0,4,-3,0.6
O=C(COc1ccccc1Cl)NCCCN1CCOCC1,8,-0.6,-4,-2,4,-1,0.9
Cc1cc(NC(=O)C2CC(c3ccc(F)cc3)=NO2)no1 (configuration not stated),13,-1.8,1,0,2,5,-0.6
COc1ccc(/C=N/Nc2cc(C)nc(-n3nc(C)cc3C)n2)cc1,4,-5.5,-45,-2,7,61,14
CCOC(=O)N1CCN(C(=O)C2CCN(S(=O)(=O)N(CC)CC)CC2)CC1,5,0.0,1,-1,-7,-18,-0.2

Only part of the results is shown. The share of hits here may be higher or lower than overall.
